N370S GC mod: inhibits or activates N370S mutant glucocerebrosidase | Potency, µM (top dose mostly 59.4 µM), for the others: top-dose activity change, negative = inhibition, most hits filed as inhibitors | N370S GC spleen homogenate, 4MU-glucoside fluorescence | hit rate 0.092% among 330,000 | P04062; active means well fitted inhibition curve with a large enough effect; inconclusive means small, poorly fitted or top-dose-only effect, or effect the other way, or another doubt; inactive means no such curve, though single readings can be large or run the other way;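 further: 0% = full enzyme activity and -100% = no enzyme basal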
* marks the source's active call; other numbers are inactive results; ? = inconclusive; [ ] = another dose, or the depositor's remark. Potency means the concentration at half of the fitted maximal effect. Only part of the results is shown; most or all hits stand in other tables.

N370S GC mod,Molecule
-16.0%,CCCCn1c(N)c(N(CC(C)C)C(=O)CSc2ccc([N+](=O)[O-])cc2)c(=O)[nH]c1=O
?,COc1cccc2cc(C(=O)NCCC3=CCCCC3)c(=O)oc12
4.5%,Cc1ccc(/C=N/N2CCOCC2)s1
-3.8%,CCOc1ccc(NC(c2ccccn2)c2oc(CO)cc(=O)c2O)cc1 (stereo not given)
4.2%,CCc1nn(C(C)C(=O)NCc2cccc(OC)c2)c(=O)c2cc3occc3n12 (stereo not given)
-2.9%,C[C@@H](NC(=O)[C@@H]1Cc2ccccc2CN1C(=O)OC(C)(C)C)C(=O)NC1CCCC1
-4.1%,Cc1ccc(-c2csc3ncnc(N4CCN(Cc5ccccc5)CC4)c23)cc1
2.2%,COc1ccccc1C(=O)NNC(=O)CN1C(=O)c2ccccc2C1=O
-10.2%,O=C1NCCC/C1=N/Nc1cc(F)ccc1F
-10.5%,COc1ccc(NC(=O)C2CSC3c4ccccc4C(=O)N23)cc1 (stereo not given)
-5.0%,Cc1ccccc1OCCC(=O)OCC(=O)N(C)c1c(N)n(Cc2ccccc2)c(=O)[nH]c1=O
3.4%,COc1ccc(NC(=O)C2C3C=CC(C3)C2C(=O)NCc2ccco2)cc1 (stereo not given)
?,O=C(NCCOc1ccccc1F)c1cc(F)c(F)cc1Cl
2.5%,COc1ccc(Cn2nnnc2C(c2cccs2)N2CCCCCC2)cc1 (stereo not given)
-24.1%,CCCCNC(=S)NNC(=O)c1csc(C)c1CC
-22.8%,COc1cc(CNCCO)ccc1OC1CCCC1
-2.7%,Cc1cc(C)cc(-n2nnn(C3C/C(=N/NC(N)=S)C4OCC3O4)c2=S)c1 (stereo not given)
1.6%,CCOC(=O)c1cccc(NC(=O)CCS(=O)(=O)c2cccc3nsnc23)c1
0.0%,CCOC(=O)CCc1c(C)nc(-n2[nH]c(C)c(CCO)c2=O)[nH]c1=O
9.3%,COc1ccccc1CNC(=O)CCS(=O)(=O)c1cccc2nonc12
-3.5%,CC(C)CC1NC(C(=O)O)Cc2c1[nH]c1ccccc21 (stereo not given)
1.9%,COc1ccc(OCC(=O)Nc2cccc(C(C)=O)c2)cc1
-9.7%,CC(C)c1nnc(NC(=O)CCC(=O)N2CCN(C3CCCCC3)CC2)s1
-4.3%,Cc1c(NC(=O)CCN2C(=O)c3ccccc3C2=O)c(=O)n(-c2ccccc2)n1C
0.5%,Cc1ccc(/C=C/C(=O)c2ccc(O)cc2)cc1

Continuation:
N370S GC mod,Molecule
-12.5%,COc1ccc(NC(=O)CCNC(=O)c2ccc([N+](=O)[O-])cc2)cc1S(=O)(=O)N1CCCCC1
-10.1%,Cc1ccc(NC(=O)CN(C)C(=O)c2ccc(COc3ccccc3)cc2)cc1
-11.9%,CCOC(=O)c1c[nH]c(=S)n(-c2ccccc2)c1=O
24.8%,Cc1ccc(S(=O)(=O)N2CCCOC2CNC(=O)C(=O)NCc2cccnc2)cc1 (stereo not given)
18.3%,O=C(NC1CC1)C1CCCN1C(=O)NC1CCCCC1 (stereo not given)
-10.5%,CCCCOc1ccc(C(=O)NCC(=O)NCc2ccncc2)cc1
3.4%,CC(Oc1ccc2c(c1)oc(=O)c1ccccc12)C(=O)NCCCN1CCOCC1 (stereo not given)
-11.1%,COc1ccc(OC)c(S(=O)(=O)NC(N)=NCCc2ccccc2)c1
11.1%,COc1ccc(C2=Nn3c(nnc3C3CCCCC3)SC2)cc1OC
-4.9%,CC(C)Cn1c(N)c(C(=O)COC(=O)CCNS(=O)(=O)c2ccccc2)c(=O)n(C)c1=O
-25.5%,CC1=CC(C)(C)N2C(=O)C3(C(C#N)=C(N)OC4=C3C(=O)CC(C)(C)C4)c3cc(C)cc1c32 (stereo not given)
-6.4%,CC1(c2cccc3ccccc23)NC(=O)N(CC(=O)NC2CCS(=O)(=O)C2)C1=O (stereo not given)
14.8%,O=C(Nc1ccccc1)C1C2/C=C\CCCCC21 (stereo not given)
4.8%,Cc1noc(C)c1S(=O)(=O)N1CCCC(C(=O)N2CCC(C)CC2)C1 (stereo not given)
11.2%,O=C(COC(=O)c1ccc(S(=O)(=O)Nc2ccccc2)cc1)NCCC1=CCCCC1
1.3%,CCOc1ccc2[nH]c(=S)[nH]c2c1
7.5%,CC(C)CCN1C(=O)c2ccc(C(=O)NCc3ccco3)cc2C1=O
12.5%,Cc1ccc(CNC(=O)c2ccc(N(C)S(=O)(=O)c3ccccc3)cc2)cc1
-1.9%,CCNC(=O)CC1C(=O)N(c2ccc(C)cc2)C(=O)N1CCc1ccc(OC)c(OC)c1 (stereo not given)
5.8%,Cc1cc(NC(=O)CSC2=NCCS2)no1
14.6%,c1cc2c(cc1-n1cnnn1)OCO2
-8.4%,Cc1c(C)n(C(=O)CN2CCN(c3ccccc3)CC2)c2ccccc12
-7.3%,Cc1nnc(SCc2ccccc2)[nH]c1=O
-1.2%,O=C(Nc1ccc(F)cc1)OCCOc1ccc(Br)cc1
-13.5%,Cc1c(C(=O)Nc2ccccn2)oc2ccccc12

The results go on:
N370S GC mod,Molecule
0.5%,CC(C)NC(=O)COC(=O)c1ccc(Cl)c(S(=O)(=O)N2CCCC2)c1
-15.8%,CCOc1cc(/C=N\NC(=O)OC)ccc1OC(=O)c1ccco1
21.4%,COc1ccccc1C(=O)Nc1ccccc1N1CCN(S(C)(=O)=O)CC1
10.9%,Cc1ccc(S(=O)(=O)N/N=C\c2cc([N+](=O)[O-])ccc2Cl)cc1
7.2%,COc1cc(CN(C)Cc2cc(=O)n3ccsc3n2)ccc1OC(F)F
-16.5%,O=C(C[n+]1ccccc1)c1ccc(-c2ccccc2)cc1
-13.7%,COc1ccccc1CNc1ccc(N2CCCCC2)cc1
3.4%,CCc1noc(C)c1C(=O)Nc1cc(S(=O)(=O)N2CCOCC2)ccc1OC(C)C
-20.5%,C(=N\N1CCOCC1)/c1nc(-c2ccccc2)n2ccccc12
2.2%,N#Cc1c(C(F)(F)F)cc(-c2ccc(Cl)c(Cl)c2)nc1SCCN1CCOCC1
-11.2%,O=C(CCN1CCc2ccccc21)c1ccc2c(c1)OCCO2
10.3%,NC(=O)CCSC(=S)N1CCOCC1
-0.6%,O=C(CSc1ncnc2ccccc12)NCc1ccc2c(c1)OCO2
-2.2%,Cc1nc(N=C(N)N)nc2ccccc12
-4.5%,Fc1ccc(N2CCN(C(c3cccs3)c3nnnn3C3CCCC3)CC2)cc1 (stereo not given)
2.0%,COc1cc(C(=O)NC(=S)Nc2ccccc2[N+](=O)[O-])cc(OC)c1OC
4.1%,O=C(Nc1ccc(F)cc1)N1CCN(c2nc3ccccc3s2)CC1
21.5%,COc1ccc(-c2cc(C(F)(F)F)nc(SCCC(=O)N3CCOCC3)n2)cc1
-10.3%,O=C(CN1c2cccc3cccc(c23)S1(=O)=O)Nc1ccccc1F
7.2%,CC(=O)N(/N=C1\Sc2ccccc2C1=O)c1cccc(C)c1
-4.1%,CC(=O)Nc1ccc(NC(=O)CCNS(=O)(=O)c2cccc3nsnc23)cc1
0.9%,COCCN(C(=O)CCC(=O)Nc1ccccn1)C(C(=O)NCCC(C)C)c1ccc(OC)cc1 (stereo not given)
4.6%,Cc1cc(C(=O)CN2C(=O)c3ccccc3S2(=O)=O)c(C)n1CC1CCCO1 (stereo not given)
-0.1%,CN(Cc1cccc2cnccc12)C(=O)c1cc(COc2ccc(F)cc2Cl)on1
-11.4%,N#Cc1ccc2c(c1)N(CCCN1CCC(O)CC1)c1ccccc1S2

Overlap with the part before: 3 compounds; new compounds follow.
N370S GC mod,Molecule
4.6%,Cc1cc(C(=O)CN2C(=O)c3ccccc3S2(=O)=O)c(C)n1CC1CCCO1 (stereo not given)
-0.1%,CN(Cc1cccc2cnccc12)C(=O)c1cc(COc2ccc(F)cc2Cl)on1
-11.4%,N#Cc1ccc2c(c1)N(CCCN1CCC(O)CC1)c1ccccc1S2
-32.1%,Cc1ccc(NC(=O)CN(C)C(=O)Cn2ccsc2=N)cc1
?,COc1ccccc1C1CN(c2ccc(F)cc2F)N=C1c1cccs1 (stereo not given)
-2.6%,CCOc1cc(C2C(C(=O)OC(C)C)=C(C)N=C3SCCC(=O)N32)ccc1OC(C)=O (stereo not given)
7.1%,CCOC(=O)N1CCC(NS(=O)(=O)c2cc(Br)cc3c2N(C(=O)CC)CC3)CC1
-0.7%,COc1ccc(OC)c(S(=O)(=O)N2CCC(C(=O)NCCC3=CCCCC3)CC2)c1
3.9%,COc1ccc(/C=C2\SC(=NCc3ccccc3)NC2=O)cc1
13.4%,CN(c1ccc(OCC(=O)N2CCCCC2)cc1)S(=O)(=O)c1cccs1
3.1%,O=C(NCc1ccco1)c1cc2sccc2n1Cc1ccc(F)cc1
19.8%,Cn1cc(SCC(=O)Nc2nc3ccccc3s2)c2ccccc21
-4.9%,CCCOc1ccc(-c2c(C(=O)N/N=C(\C)c3ccncc3)nnn2-c2nonc2N)cc1
-14.7%,Cc1cccc(CNc2ncnc3ccc(-c4cccc(NS(C)(=O)=O)c4)cc23)c1
5.5%,O=C(CNc1cccc(S(=O)(=O)N2CCCCC2)c1)Nc1ccccc1F
-7.5%,O=C(CCCNC(=O)c1ccc(Cl)cc1)NCc1ccc(F)cc1
4.7%,Cc1nc(N2CCN(S(=O)(=O)c3ccc(F)cc3)CC2)c2c(C)c(C)sc2n1
20.8%,Cc1cnc(CNC(=O)c2ccc(OC3CCN(C(=O)C4CC4)CC3)cc2)cn1
-6.0%,COc1cc(CN2CCCC(CO)(Cc3cccc(Cl)c3)C2)cc2c1OCO2 (stereo not given)
11.5%,CCOc1ccccc1NC(=O)Cn1c(=O)oc2ccccc21
-3.0%,C=CCn1c(C)cc(C2=NNC(=NCc3ccccc3)SC2)c1C
-1.3%,O=C(COC(=O)CCCNC(=O)c1ccc(Cl)cc1)Nc1cc(Cl)ccc1Cl
7.9%,O=CN(CCN(C=O)CN1CCCCC1)CN1CCCCC1
-6.3%,Cc1cc(C)c(C(=O)CSc2nnc(C)c(=O)[nH]2)cc1C
6.3%,CCOC(=O)c1cc2cc(OC)ccc2nc1C
-8.1%,CCN1CCN(Cc2ccc(NC(=O)CC3Oc4ccc(C)cc4NC3=O)cc2)CC1 (stereo not given)
-5.3%,Cc1cccc(CSC(Nc2ccc(F)cc2)=C(C#N)C#N)c1
0.9%,Cn1c(CO)cnc1SCc1ccccc1

The list continues:
N370S GC mod,Molecule
-0.5%,NC(=O)C1CCN(C(=S)c2cccs2)CC1
-12.1%,COCCn1c(CCC(=O)O)nc2c1c(=O)[nH]c(=O)n2CC(C)C
-14.8%,CN(CC(=O)Nc1cc([N+](=O)[O-])ccc1Cl)Cc1ccc(Br)cc1
9.7%,O=C(Nc1ccccc1F)C1CCCN(S(=O)(=O)c2ccccc2)C1 (stereo not given)
?,OC(COc1ccc(Cl)cc1)CN1CCN(c2cccc(Cl)c2)CC1 (stereo not given)
-0.7%,Nc1nnc(CSc2ccc(Cl)cc2)s1
-3.5%,Cc1ccc(NS(=O)(=O)c2ccc(-c3ccc(=O)[nH]n3)o2)cc1
-9.9%,O=C(NNC(=O)c1ccccc1[N+](=O)[O-])c1ccc(NC(=O)c2ccccc2)cc1
-7.9%,CN1CCN(CC(=O)NC23CC4CC(CC(C4)C2)C3)CC1
-7.3%,CCN1CCCC(Sc2nc3c([nH]2)c(=S)n(C)c(=O)n3C)C1 (stereo not given)
-1.3%,COC(=O)c1ccc(COc2ccc3c(C)c(C)c(=O)oc3c2C)o1
0.5%,CC(=O)c1c(C(C)=O)c(C)n(-c2cccc3cccnc23)c1C
-6.3%,Cc1noc(C)c1C(=O)Nc1sc(C)c(C)c1C#N
-0.4%,Clc1cccc(N2CCN(c3ncnc4nc[nH]c34)CC2)c1
2.7%,CSc1cccc(N2CC(C(=O)Nc3ccccc3N3CCCC3)CC2=O)c1 (stereo not given)
-3.3%,O=C(CNC(=O)c1cccs1)NCC(=O)OCc1ccc(Cl)cc1Cl
3.0%,Cn1c(SCC(=O)NC2CCCCC2)nnc1-c1cccc(N)c1
0.6%,[O-][N+]12CCCCC1CCCC2CO (stereo not given)
11.6%,O=C1C2CC=C(Cl)CC2C(=O)N1CCC[n+]1cccc2ccccc21 (stereo not given)
1.8%,CCOC(=O)c1cc(C)n(CCCN2CCOCC2)c1C
2.2%,CCN1C(=O)/C(=C\N(C)C)c2ccccc21
5.3%,O=C(c1ccccc1)c1cccn1CC(=O)N1CCN(C2CCCCC2)CC1
-2.6%,Cc1cc(C)cc(NC(=O)CS(=O)(=O)c2ccccc2)c1
3.3%,O=C(CN1CCCCCC1)NCCc1ccc(F)cc1
10.9%,O=C(Nc1nnc(SCc2c(Cl)cccc2Cl)s1)C1CCCO1 (stereo not given)

Some of the entries so far, bar-delimited.
structure | N370S GC mod
O=C(CN1CCCCCC1)NCCc1ccc(F)cc1 | 3.3%
Clc1cccc(N2CCN(c3ncnc4nc[nH]c34)CC2)c1 | -0.4%
CCOC(=O)c1cc(C)n(CCCN2CCOCC2)c1C | 1.8%
Nc1nnc(CSc2ccc(Cl)cc2)s1 | -0.7%
[O-][N+]12CCCCC1CCCC2CO (stereo not given) | 0.6%
Cc1ccc(NS(=O)(=O)c2ccc(-c3ccc(=O)[nH]n3)o2)cc1 | -3.5%
CCN1CCCC(Sc2nc3c([nH]2)c(=S)n(C)c(=O)n3C)C1 (stereo not given) | -7.3%

New compounds follow:
N370S GC mod,Molecule
-0.3%,Cc1ccc(-c2nn(-c3ccccn3)c(=O)c3ccccc23)cc1
2.6%[2.35 µM],CN(C)c1nc2ccccc2c(N)c1-c1ccccc1
6.1%,COc1ccc(CCNC(=O)c2cccc3c2C(=O)N(C2CCCCC2)C3)cc1OC
-3.6%,Cc1c(NC(=O)c2ccc3nsnc3c2)cccc1[N+](=O)[O-]

Pulled by compound from above (2):
N370S GC mod,Molecule
-7.3%,CCN1CCCC(Sc2nc3c([nH]2)c(=S)n(C)c(=O)n3C)C1 (stereo not given)
-0.1%,CN(Cc1cccc2cnccc12)C(=O)c1cc(COc2ccc(F)cc2Cl)on1

Screens deposited in PubChem by National Center for Advancing Translational Sciences (NCATS).
